EPAC1 ag val – Validation qHTS for agonist of cAMP-regulated guanine nucleotide exchange factor 3 (EPAC1); Rap guanine nucleotide exchange factor 3 (Homo sapiens), O95398; Potency, µM, without a hit: max response, positive = active, most hits filed as activators; EPAC1 Rap1b BODIPY-GDP exchange, fluorescence; actives 1% (n = 16,000); active = well fitted activation curve with a large enough effect; inconclusive = small, poorly fitted or top-dose-only effect; inactive = no such curve, though single readings can be large or run the other way;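 also: nearly all actives have a fitted effect of over 70% in size; series mostly up to about 76 or 150 µM; scaled to a cAMP control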
Target sequence (O95398 whole entry, looked up): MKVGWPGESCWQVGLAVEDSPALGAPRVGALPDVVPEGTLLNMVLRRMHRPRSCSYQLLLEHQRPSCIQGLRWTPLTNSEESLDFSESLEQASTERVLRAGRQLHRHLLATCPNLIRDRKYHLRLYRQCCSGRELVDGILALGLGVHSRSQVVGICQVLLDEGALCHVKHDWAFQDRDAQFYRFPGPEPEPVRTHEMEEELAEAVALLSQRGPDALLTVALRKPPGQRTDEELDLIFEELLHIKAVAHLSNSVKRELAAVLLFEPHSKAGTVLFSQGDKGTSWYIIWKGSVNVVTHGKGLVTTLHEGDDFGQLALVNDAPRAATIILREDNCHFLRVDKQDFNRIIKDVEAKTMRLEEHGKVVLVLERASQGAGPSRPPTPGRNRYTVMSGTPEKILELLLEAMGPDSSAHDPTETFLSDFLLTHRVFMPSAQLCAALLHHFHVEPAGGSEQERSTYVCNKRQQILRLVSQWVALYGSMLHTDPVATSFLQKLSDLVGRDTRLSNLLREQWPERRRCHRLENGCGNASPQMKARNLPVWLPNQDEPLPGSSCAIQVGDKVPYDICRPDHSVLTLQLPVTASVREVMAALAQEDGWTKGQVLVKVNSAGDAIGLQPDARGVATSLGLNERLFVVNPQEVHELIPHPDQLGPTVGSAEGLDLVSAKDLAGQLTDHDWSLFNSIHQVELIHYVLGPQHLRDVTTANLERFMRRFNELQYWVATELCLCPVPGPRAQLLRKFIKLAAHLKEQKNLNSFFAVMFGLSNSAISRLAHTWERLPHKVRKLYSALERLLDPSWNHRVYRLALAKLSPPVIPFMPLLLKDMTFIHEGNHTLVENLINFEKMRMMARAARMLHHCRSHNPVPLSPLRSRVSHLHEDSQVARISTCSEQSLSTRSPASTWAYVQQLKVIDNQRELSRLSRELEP
The depositor's hits bear a star; ? = inconclusive; & = joins results of further samples; [ ] = dose if it differs, or a comment. % is scaled to controls: 0 for no effect and ±100 for the full control effect; potency is read from the fitted curve at half-maximal effect. An excerpt (hit frequency here may not be typical).

SMILES	EPAC1 ag val
OCC(O)CN1CCN(c2ccccc2)CC1 (stereo unspecified)	27.4%
C[C@@H]1CC(=O)NN=C1c1ccc(NN=C(C#N)C#N)cc1	-0.4%
NCCO	9.1%
COc1ccc([C@@H]2CNC(=O)C2)cc1OC1CCCC1	5.2%&7.1%&-35.6%
CN1CCC(Nc2ncc3ncnc(Nc4ccc(F)c(Cl)c4)c3n2)CC1	-25.8%
CN1CCN(c2cc3c(cc2F)c(=O)c(C(=O)O)cn3-c2ccc(F)cc2)CC1	10.2%
COc1ccc(S(=O)(=O)Nc2nnc(CC(C)C)s2)cc1	2.8%&1.9%
CN=C(NC#N)Nc1ccc(C2=NNC(=O)CC2C)cc1 (stereo unspecified)	-14.7%&-10.0%
CN(C)CCOC(=O)C(c1ccccc1)C1(O)CCCC1 (stereo unspecified)	25.3%&-10.9%
CCCN(CCC)C(=O)C(CCC(=O)O)NC(=O)c1ccccc1 (stereo unspecified)	-4.9%&-12.5%&11.3%
Nc1cc(=O)[nH]c(N)n1	3.7%&3.8%&-6.6%
CCCC(=O)O[C@]1(C(=O)CCl)[C@H](C)C[C@@H]2[C@H]3CCC4=CC(=O)C=C[C@]4(C)[C@@]3(F)C(=O)C[C@@]21C	8.0%
Cc1cccc(C)c1NC(=O)c1cc(S(N)(=O)=O)c(Cl)cc1O	8.6%
CN1CCN(C(=O)C2CCCCC2)CC1	10.1%
CCN1CC(CCN2CCOCC2)C(c2ccccc2)(c2ccccc2)C1=O (stereo unspecified)	-0.8%
Cc1oncc1C(=O)Nc1ccc(C(F)(F)F)cc1	9.2%&-66.8%&-77.8%
N#C/C(=C1\SCC(c2ccccc2Cl)S1)n1ccnc1 (stereo unspecified)	-7.2%
COC(c1ccccc1)(c1ccccc1)[C@H](Oc1nc(C)cc(C)n1)C(=O)O	-13.2%
CN1CCN(c2c(F)cc3c(=O)c(C(=O)O)cn4c3c2SCC4)CC1	-3.7%
CN1CCC(=C2c3ccccc3CC(=O)c3sccc32)CC1	-5.5%&-9.1%&3.0%&0.5%
c1ccc(CNCCNCc2ccccc2)cc1	-14.7%
CN1CCN(CCCN2c3ccccc3Sc3ccc(S(=O)(=O)N(C)C)cc32)CC1	-29.3%
NC(=O)c1ccc(-c2nc(-c3ccc4c(c3)OCO4)c(-c3ccccn3)[nH]2)cc1	9.1%
O=C(NCCN1CCOCC1)c1ccc(Cl)cc1	2.6%&13.2%&-30.3%
O=C(O)CCCCCCCC(=O)O	-4.4%&1.8%&-6.1%

Compounds above with an NH in an aromatic ring (2):
SMILES	EPAC1 ag val
Nc1cc(=O)[nH]c(N)n1	3.7%&3.8%&-6.6%
NC(=O)c1ccc(-c2nc(-c3ccc4c(c3)OCO4)c(-c3ccccn3)[nH]2)cc1	9.1%

Next part.
SMILES	EPAC1 ag val
Nc1ccc(S(=O)(=O)NCc2ccccc2)cc1	-35.6%[inhibitor]
Cc1nc2c([nH]1)c(=O)n(C)c(=O)n2Cc1ccco1	-10.6%&-5.9%
O=C1c2ccccc2C(=O)c2c(O)c(O)cc(O)c21	?
Cc1ccc(Nc2c(F)cccc2Cl)c(CC(=O)O)c1	-13.2%
CN(C)CCC[C@@]1(c2ccc(F)cc2)OCc2cc(C#N)ccc21	-24.7%&6.1%
CCCCOC(=O)c1ccc(N)cc1	-21.4%
C=CC(=O)Nc1cc2c(Nc3ccc(F)c(Cl)c3)ncnc2cc1OCCCN1CCOCC1	-63.5%[inhibitor]
COC(=O)c1ccccc1C(=O)c1ccc(OCCN2CCCCC2)cc1	18.6%
C[C@@H]1C[C@H]2[C@@H]3C[C@H](F)C4=CC(=O)C(Cl)=C[C@]4(C)[C@@]3(F)[C@@H](O)C[C@]2(C)[C@@]1(O)C(=O)CO	-21.1%
Cc1c(C(C)C)c(=O)n(-c2ccccc2)n1C	?
Cc1cn([C@H]2C[C@H](O)[C@@H](CO)O2)c(=O)[nH]c1=O	1.8%&-1.5%
CN1C(=O)CC(C)(c2ccccc2)C1=O (stereo unspecified)	5.6%
CC[C@]12CCCN3CCc4c(n(c5ccccc45)[C@@](O)(C(=O)OC)C1)[C@@H]32	-17.0%
Oc1cc2c(cc1O)C1c3ccc(O)c(O)c3OCC1(O)C2 (stereo unspecified)	-11.7%
NC(=O)c1ccc([N+](=O)[O-])cc1Cl	-61.2%[inhibitor]
Cc1ccsc1/C=C/C1=NCCCN1C	?
CCC(C)n1ncn(-c2ccc(N3CCN(c4ccc(OC[C@H]5CO[C@](Cn6cncn6)(c6ccc(Cl)cc6Cl)O5)cc4)CC3)cc2)c1=O (stereo partly specified)	1.1%
CCCCCCCCCC(=O)O	-6.7%
CCCCCCCCCCOCC(O)CN (stereo unspecified)	-23.1%
COc1cc(C(=O)NCCCCCC(=O)O)cc(OC)c1OC	-11.2%
NC(=O)NC(=O)Cc1ccccc1	18.0%
CCC(Cc1c(I)cc(I)c(N)c1I)C(=O)O (stereo unspecified)	25.5%&3.2%
CC(C)[C@@H]1C(=O)N(S(C)(=O)=O)[C@H]2CCN(C(=O)/C=C\CN3CCCCC3)[C@@H]12	3.1%
O=C(c1ccccc1)c1ccc2n1CCC2C(=O)O (stereo unspecified)	?
OCCOCCOCCO	-3.7%

Three records picked at random from those above, as already listed:
SMILES	EPAC1 ag val
Cc1ccc(Nc2c(F)cccc2Cl)c(CC(=O)O)c1	-13.2%
O=C1c2ccccc2C(=O)c2c(O)c(O)cc(O)c21	?
CCC(Cc1c(I)cc(I)c(N)c1I)C(=O)O (stereo unspecified)	25.5%&3.2%

Four compounds from above, sorted by the number in EPAC1 ag val, rising:
SMILES	EPAC1 ag val
C[C@@H]1C[C@H]2[C@@H]3C[C@H](F)C4=CC(=O)C(Cl)=C[C@]4(C)[C@@]3(F)[C@@H](O)C[C@]2(C)[C@@]1(O)C(=O)CO	-21.1%
Oc1cc2c(cc1O)C1c3ccc(O)c(O)c3OCC1(O)C2 (stereo unspecified)	-11.7%
OCCOCCOCCO	-3.7%
CC(C)[C@@H]1C(=O)N(S(C)(=O)=O)[C@H]2CCN(C(=O)/C=C\CN3CCCCC3)[C@@H]12	3.1%

(further entries)
SMILES	EPAC1 ag val
Nc1ncnc(Nc2ccccc2)n1	-7.6%
COc1cc(C)nc(-n2nc(C)cc2OC)n1	-17.3%
CC1CCc2c(N3CCC(O)CC3)c(F)cc3c(=O)c(C(=O)O)cn1c23 (stereo unspecified)	-4.3%
CCCCN(CCCC)CC(O)c1cc(Cl)cc2c1-c1ccc(Cl)cc1/C2=C/c1ccc(Cl)cc1 (stereo unspecified)	22.9%
CC(C)(CO)[C@@H](O)C(=O)NCCCO	0.8%&-2.9%
CC[C@@H](C)[C@H](N)C(=O)O	-24.1%
C#C[C@]1(O)CC[C@H]2[C@@H]3CCC4=CC(=O)CC[C@@H]4[C@H]3CC[C@@]21CC	-2.9%
Cc1cc(O)c2c(c1)C(=O)c1cccc(O)c1C2=O	-16.6%&-14.7%
COc1cc2[nH]c(=O)[nH]c(=O)c2cc1OC	-16.2%
CN=C(N)NC(=O)Nc1c(C)cccc1C	2.1%
CCOC(=O)Nc1ccc2c(c1)N(C(=O)CCN1CCOCC1)c1ccccc1S2	-12.2%
Cc1ccc(C(=O)C(C)CN2CCCCC2)cc1 (stereo unspecified)	16.0%&16.6%
CC1(C)Oc2ccc(C#N)cc2[C@@H](N2CCCC2=O)[C@@H]1O	4.0%&-14.0%
CCCc1cc(C(N)=S)ccn1	-19.3%
COC(=O)Nc1nc2ccc(S(=O)c3ccccc3)cc2[nH]1 (stereo unspecified)	?
O=C(OC1C[C@@H]2CC3C[C@H](C1)N2CC3=O)c1c[nH]c2ccccc12 (stereo partly specified)	-4.5%
CN(CCOc1ccc(NS(C)(=O)=O)cc1)CCc1ccc(NS(C)(=O)=O)cc1	-15.6%
O=C(O)[C@@H](O)[C@H](O)[C@H](O)[C@@H](O)C(=O)O (tested in a mixture with another compound)	5.7%
O=C1CCc2cc(OCCCCc3nnnn3C3CCCCC3)ccc2N1	-0.6%&14.7%&-21.2%
COc1ccccc1OC(=O)Oc1ccccc1OC	-19.9%
CC(C)(C(=O)c1cccnc1)c1cccnc1	-10.6%
Cc1ccc(-n2nc(C(C)(C)C)cc2NC(=O)Nc2ccc(OCCN3CCOCC3)c3ccccc23)cc1	15.2%
COc1ccc(-c2oc3c(CC=C(C)C)c(O[C@H]4OC(CO)C(O)C(O)C4O)cc(O)c3c(=O)c2O[C@@H]2OC(C)C(O)C(O)C2O)cc1 (stereo partly specified)	6.9%
CC(=O)O[C@@]12CO[C@@H]1C[C@H](O)[C@@]1(C)C(=O)[C@H](O)C3=C(C)[C@@H](OC(=O)[C@H](O)[C@@H](NC(=O)OC(C)(C)C)c4ccccc4)C[C@@](O)([C@@H](OC(=O)c4ccccc4)[C@H]21)C3(C)C	-121.7%&-25.3%[inhibitor]
OCCOCCN1CCN(C(c2ccccc2)c2ccc(Cl)cc2)CC1 (stereo unspecified)	-6.9%
Other records:
SMILES	EPAC1 ag val
Oc1ccc([C@@H]2CNCCc3c2cc(O)c(O)c3Cl)cc1	-24.0%
CN(C)C(=N)N=C(N)N	-0.5%&3.6%
O=C(Nc1ccc([N+](=O)[O-])cc1)Nc1ccc([N+](=O)[O-])cc1	-4.4%
CCN(CC)S(=O)(=O)c1ccc(C(=O)O)cc1	4.0%
CCOC(=O)Nc1ccc(NCc2ccc(F)cc2)nc1N	?
CCN(CC)CCOC(=O)C(c1ccccc1)c1ccccc1	12.0%
COc1c(O)cc2c(c1O)[C@@H]1O[C@H](CO)[C@@H](O)[C@H](O)[C@H]1OC2=O	-8.9%

Screening data from PubChem.
